Source: PubChem BioAssay (National Center for Advancing Translational Sciences (NCATS))
miR-21 FLuc – qHTS Assay for Modulators of miRNAs and/orActivators of miR-21; HeLa miR-21 FLuc reporter, luciferase, 48 h; 340,000 tested, under 10 active; Potency, µM (series often up to 38.3 µM), for the others: at the top dose reporter change, positive = more light; AID 2288, 2010; active = well fitted rising curve with a large enough effect; inconclusive = small, poorly fitted or top-dose-only effect; inactive = no such curve, though single readings can be large or run the other way;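 note: % of control where 0% means no effect; miR-21 action dims this reporter so a rising signal means less miR-21 action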
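HeLa miR-21-FLuc reporter line, endogenous miR-21; 2000 cells/well in DMEM/10% FBS; compound titration up to ~40uM final, 48 h, 37 degree Celsius; luciferase detection reagent, 15 min lysis, CCD luminescence.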
* = called active by the depositor; ? = inconclusive.

SMILES	miR-21 FLuc
Cc1cccc(C(=O)N2CCCCC2CCN2CCCCC2)c1 (stereo not drawn)	-1%
COc1ccc(CNC(=O)C(=O)NCC(c2ccco2)S(=O)(=O)c2cccs2)cc1 (stereo not drawn)	4%
COc1cccc(CCNC(=O)c2c(O)nc3cc(C)ccn3c2=O)c1	0%
Cc1ccc(Sc2ccc(N3CCCC(C(=O)Nc4ccc(F)c(Cl)c4)C3)nn2)cc1 (stereo not drawn)	16%
CCOc1ccc(NC(=O)Cn2c(=O)c(CNc3ccc(OC)cc3)cc3ccc(OC)cc32)cc1	8%
CC1CCN(S(=O)(=O)c2nnc(NC(=O)c3ccc(C(C)C)cc3)s2)CC1	-34%
CCOc1ccc2c(c1)c(=O)c(C(=O)c1ccc(CC)cc1)cn2CC(=O)Nc1ccc2c(c1)OCCO2	-3%
CCCCN(CCCNC(=O)c1ccc(Sc2ccc(Cl)cc2)c(NC(C)=O)c1)c1ccccc1	20%
CCOc1ccc(C(=O)NCc2nc3cccnc3n2Cc2cccc(OC)c2)cc1	-2%
Cc1ccc(Cl)cc1NC(=O)C(C)n1nc(-c2ccccc2)ccc1=O (stereo not drawn)	-7%
CCc1ccc(-n2nc(CO)c(C(=O)NCCc3ccccc3)n2)cc1	-2%
Cc1cc(=O)n(Cc2ccccc2)c2c1c(C)nn2-c1ccccc1	-1%

Exported field by field: part of the list above
> Cc1cccc(C(=O)N2CCCCC2CCN2CCCCC2)c1 (stereo not drawn)
- miR-21 FLuc: -1%

> COc1cccc(CCNC(=O)c2c(O)nc3cc(C)ccn3c2=O)c1
- miR-21 FLuc: 0%

> CCOc1ccc2c(c1)c(=O)c(C(=O)c1ccc(CC)cc1)cn2CC(=O)Nc1ccc2c(c1)OCCO2
- miR-21 FLuc: -3%

Continuation.
SMILES	miR-21 FLuc
COc1cc2c(cc1OC)C(COc1ccc3c(C)cc(=O)oc3c1)N(C(=O)CC(C)C)CC2 (stereo not drawn)	-7%
Cn1c(=O)c2c(n3c4ccccc4nc13)NC(=O)CC2c1cccc(Cl)c1 (stereo not drawn)	-4%
Cc1c(C(=O)OCC2CCCCC2)[nH]c2c1C(=O)CC(c1ccc(Cl)cc1)C2 (stereo not drawn)	-2%
CCOc1ccc(-c2cc3nc(C4CCN(C(=O)OC(C)(C)C)CC4)c(C(=O)Nc4cccc(C(F)(F)F)c4)cn3n2)cc1	-12%
Cc1ccc(Cl)cc1NC(=O)c1cc(-c2ccc3c(c2)OCCO3)on1	-36%
O=C(Nc1cccc(C(F)(F)F)c1)c1ccc2c(c1)nnn2C1CCCC1	-5%
COc1ccc(Cl)cc1NC(=O)Cn1c(=O)n(Cc2nc(C)no2)c(=O)c2ccccc21	-1%
CC1Cc2cc(S(=O)(=O)CCC(=O)Nc3ccc(Cl)cc3F)ccc2N1C(=O)C1CC1 (stereo not drawn)	15%
COC(=O)c1ccc(Cl)cc1NC(=O)N(Cc1ccc(OC)cc1)C1CCN(C(C)=O)CC1	-7%
O=C(NCc1ccccc1)c1cnc2sc(N3CCCC3)nn2c1=O	-1%
CCOC(=O)c1ccccc1Nc1cc(C)nc2nc(-c3ccco3)nn12	-7%
Cc1ccc2c(c1)-c1onc(C(=O)N3CCN(c4cccc(C)c4C)CC3)c1CO2	-36%
CCOC(=O)Cc1ccc(NC(=O)N2CC(CC)Oc3ccccc32)cc1 (stereo not drawn)	-3%
COc1ccc(NC(=O)CN2CCN(Cc3ccccc3)S2(=O)=O)c(OC)c1	8%
COC(=O)c1ccc(NC(=O)Nc2nnc(N(C)C3CCCCC3)s2)cc1	12%
O=C(Cn1nc(C(F)(F)F)c2c1CCCC2)Nc1ccc(Cl)cc1	?
O=C(NCCc1csc(-c2cccc(F)c2)n1)C(=O)Nc1cc(F)ccc1F	0%
Cc1ccc2cccc(NC(=O)c3cccc4c(Br)cccc34)c2n1	-10%
CCOc1ccccc1CN(CCc1ccc2c(c1)OCO2)Cc1cccc(OC)c1OC	?
COc1cccc2cc(-c3cn4c(n3)sc3cc(F)ccc34)c(=O)oc12	2%
COc1ccc(C2c3cc(OC)c(OC)cc3CC(=O)N2c2ccc(C)cc2)cc1 (stereo not drawn)	16%
O=C(O)c1cccc(Nc2ncnc3scc(-c4ccccc4)c23)c1	-2%
CCOc1ccc(NC(=O)CSc2oc(-c3ccco3)nc2S(=O)(=O)c2ccc(C)cc2)cc1	17%
Cc1cccc(N2CCN(C(=O)c3cc4c(=O)oc5ccccc5c4s3)CC2)c1C	2%
COCCCNC(=O)c1sc2nc(C)c(C(=O)Nc3ccc(C)cc3C)c(-c3ccc(Br)cc3)c2c1N	29%
Cc1ccc(NC(=O)Nc2nnc(SCC(=O)Nc3ccc(F)cc3F)s2)cc1	-3%
CC(C)(C)OC(=O)N1CCC(c2c(C(=O)NCc3ccco3)cnn2-c2ccc(F)cc2F)CC1	-1%
CCOC(=O)C1CCCN(C(=O)c2ccc3c(c2)N(Cc2ccc(Cl)cc2)C(=O)c2ccccc2S3=O)C1 (stereo not drawn)	3%
Cc1cccc(NC(=O)C2CCC(CNS(=O)(=O)c3csc(C(N)=O)c3)CC2)c1C (stereo not drawn)	-33%
CCOc1ccc(NC(=O)Cn2c(C)ccc(C#N)c2=O)cc1	1%
Cc1ccc(C2C(=O)N(C3CCCCCC3)CC(=O)N2CCC2=CCCCC2)cc1 (stereo not drawn)	-5%
COc1ccc(-c2cc(C(=O)NCCc3ccc(Cl)cc3)[nH]n2)cc1	0%
CCC(C)NC(=O)c1sc2nc(C)c(C(=O)Nc3ccc(C)cc3C)c(-c3ccc(Cl)cc3)c2c1N (stereo not drawn)	10%
Cc1cc(=O)[nH]c2nnc(SCc3ccc(C(F)(F)F)cc3)n12	-23%
CCCc1ccc(OCC(=O)Nc2sc3c(c2C(=O)OC)CCCCC3)cc1	-1%
COc1cc(OC)cc(-c2nc3n(n2)C(c2ccccc2F)C(C(=O)Nc2cccnc2)=C(C)N3)c1 (stereo not drawn)	0%

Some values from the results shown:
Cc1ccc(C2C(=O)N(C3CCCCCC3)CC(=O)N2CCC2=CCCCC2)cc1 (stereo not drawn) – miR-21 FLuc: -5%
COc1cc(OC)cc(-c2nc3n(n2)C(c2ccccc2F)C(C(=O)Nc2cccnc2)=C(C)N3)c1 (stereo not drawn) – miR-21 FLuc: 0%
CCc1ccc(-n2nc(CO)c(C(=O)NCCc3ccccc3)n2)cc1 – miR-21 FLuc: -2%
Cc1cc(=O)[nH]c2nnc(SCc3ccc(C(F)(F)F)cc3)n12 – miR-21 FLuc: -23%

Next records
SMILES	miR-21 FLuc
COc1ccc(Cn2c(C(=O)O)c(CNCCc3cccs3)c3ccc(C)cc32)cc1	12%
COc1cccc(-n2c(SCC(=O)N3CCc4ccccc43)nc3c([nH]c4ccccc43)c2=O)c1	-2%
Cc1nc(-c2cccc(NC(=O)Nc3ccc([N+](=O)[O-])cc3)c2)no1	?
CC(=O)c1ccc(N2CCN(S(=O)(=O)c3cc(-c4onc(C)c4C)ccc3C)CC2)cc1	21%
CCC(=O)N1CCc2cc(Br)cc(S(=O)(=O)N3CCC(C(=O)N(CC)CC)CC3)c21	-1%
Cc1ccc(CNC(=O)CSc2nc(=O)n(Cc3ccco3)c3c2CCC3)cc1	-12%
Cc1ccccc1Nc1cc(C(=O)NC2CCCCC2)c2ccccc2n1	-7%
CCOC(=O)c1cc(-c2ccccc2)n(-c2cccc(C(=O)N(CC)c3ccccc3)c2)c1C	27%
CC(=O)c1cccc(NC(=O)c2sc(-n3nc(C)c(Cc4ccccc4)c3C)nc2C)c1	17%
O=C(NCCc1ccc(Cl)cc1)c1cnc2sc(N3CCCC3)nn2c1=O	-1%
COc1ccccc1N1CCN(Cc2cc(COC(C)C)c3cccnc3c2O)CC1	21%
Cc1ccc(C)c(NC(=O)C2CCCN(c3ncnc4onc(C)c34)C2)c1 (stereo not drawn)	1%

Structures shown so far with bromine, in the order listed:
SMILES	miR-21 FLuc
Cc1ccc2cccc(NC(=O)c3cccc4c(Br)cccc34)c2n1	-10%
COCCCNC(=O)c1sc2nc(C)c(C(=O)Nc3ccc(C)cc3C)c(-c3ccc(Br)cc3)c2c1N	29%
CCC(=O)N1CCc2cc(Br)cc(S(=O)(=O)N3CCC(C(=O)N(CC)CC)CC3)c21	-1%

Next section
SMILES	miR-21 FLuc
CC1C(=O)N2CCCc3cc(S(=O)(=O)Nc4ccc(Br)cc4F)cc1c32 (stereo not drawn)	3%
COc1ccccc1NC(=O)CSCc1cc(=O)c2c(C)cc(C)cc2[nH]1	3%
CCCN(C(=O)Cn1ncc2c1-c1ccccc1OC2)c1cccc(C)c1	?
Cc1ccc(C(=O)Nc2cc3nn(-c4ccccc4)nc3cc2Cl)c(C)c1	-3%
N#Cc1ccc(-c2cccs2)nc1SCc1c(F)cccc1Cl	?
Cc1cc(C)cc(-n2c(SCC(=O)N3CCCCCC3)nc3c([nH]c4ccccc43)c2=O)c1	1%
COc1ccc(Cn2c(CO)cnc2SCc2ccc(F)cc2)cc1	-6%
COc1cccc(C2C(C(=O)Nc3ccc(C)cc3C)=C(C)Nc3c(C(=O)Nc4ccccc4)cnn32)c1 (stereo not drawn)	13%
CCOc1ccc(NC(=O)Cn2c(CCC(=O)O)ccc2-c2ccc(C)cc2)cc1	-8%
COc1ccc2c(c1)CCc1sc(NC(=O)c3ccc(Br)cc3)nc1-2	-1%
Cc1ccccc1NC(=O)[C@H](CSCc1ccccc1)N1Cc2ccccc2C1=O	6%
CCOc1ccccc1CNC(=O)C1CCN(C2=NS(=O)(=O)C(c3ccc(C)c(C)c3)=C2C)CC1	0%
Cc1ccc2[nH]c(CSc3nnc(C)s3)cc(=O)c2c1	-13%
CCn1nc(C)c2c(-c3ccccc3)cc(=O)n(C(C)C(=O)NCc3cccc(OC)c3)c21 (stereo not drawn)	-1%
CN(C)c1ccc(CN(CC2CCCO2)C(=O)c2ccc(Br)cc2)cc1 (stereo not drawn)	8%
COc1ccccc1NC(=O)Cn1cnc2ccc(S(=O)(=O)N3CCC(C)CC3)cc2c1=O	-2%
COc1ccc(CNC(=O)c2cc(=O)[nH]c3ccc(S(=O)(=O)N4CCCC4)cc23)c(OC)c1	-1%
COC(=O)c1c(-c2cccs2)csc1NC(=O)c1ccc(OC)c(OC)c1	-1%
CCOC(=O)c1ccc(NC(=O)CSc2nccn2-c2cc(C)cc(C)c2)cc1	-1%
COc1ccc(OC)c(CNC(=O)c2ccc(Sc3ccc(Cl)cc3)c(NC(C)=O)c2)c1	-1%
COc1ccc(CCNC(=O)Cn2cc(S(=O)(=O)Cc3ccccc3F)c3ccccc32)cc1OC	-1%
CCNC(=O)C1CCN(c2nc3ccccc3nc2C(F)(F)F)CC1	-1%
COc1cc2c(cc1OC)C(COc1ccc(C(C)C)cc1)N(C(=O)c1ccc(S(=O)(=O)N3CCCC3)cc1)CC2 (stereo not drawn)	2%
Cc1ccc(-c2noc(-c3ccccc3OCC(=O)Nc3ccccc3[N+](=O)[O-])n2)cc1	13%
Cc1cccc(NC(=O)c2oc3ccccc3c2NC(=O)Cc2coc3ccc(C(C)C)cc23)c1	-37%
CCOc1ccc(NC(=O)CCn2c(=O)c3cccn3c3cccnc32)cc1	-7%
CCc1cccc(NC(=O)C2CCN(S(=O)(=O)c3cccc(-c4noc(C)n4)c3)CC2)c1	?
Cc1ccc(-n2c(=O)c3c(cnn3C)n(CC(=O)Nc3ccccc3C)c2=O)cc1	2%
Cc1ccc(CN(C(=O)COc2ccc(C(C)(C)C)cc2)C2CCS(=O)(=O)C2)o1 (stereo not drawn)	5%
CCC(CO)NC(=O)C(=O)Nc1c2c(nn1-c1ccc(F)cc1)CSC2 (stereo not drawn)	0%
Cc1nc2ccc(S(=O)(=O)N(C)CC(=O)Nc3ccc(Br)c(C)c3)cc2s1	15%
COc1cc(OC)c(NC(=O)CN2CCCN(Cc3ccccc3C)S2(=O)=O)cc1Cl	4%
CCCCNC(=O)c1sc2ncccc2c1-n1cccc1	-34%
COc1ccc(-n2nc(C(=O)Nc3ccc(C)cn3)c3c4ccccc4n(C)c3c2=O)cc1Cl	-5%
COc1cc(NC(=O)C(NC(=O)C2CCC(C)CC2)C(C)C)cc(OC)c1OC (stereo not drawn)	-7%
Fc1cc(F)c2ncc3c(-c4ccccc4)nn(-c4cccc(Cl)c4)c3c2c1	8%
COc1cc(C(=O)Nc2nnc(S(=O)(=O)N(C)c3ccccc3)s2)cc(OC)c1OC	-52%
Cc1ccc(S(=O)(=O)c2nc(-c3ccco3)oc2SCC(C)C)cc1	6%
COC(=O)Cc1c(C)c2cc3c(c(C)c2oc1=O)OCN(CCc1ccc(OC)cc1)C3	-10%
Cc1ccc(NC(=O)CSc2nc(=O)n(CCCN(C)C)c3c2CCC3)cc1F	2%
COc1cc(OC)c(NC(=O)c2cnn(-c3ccccc3)c2-n2cccc2)cc1Cl	2%
COc1ccc(CC(=O)NC2CC(=O)N(c3cccc(F)c3)C2)cc1 (stereo not drawn)	1%
Cc1cc(C)c(S(=O)(=O)NCCS(=O)(=O)N2CCN(c3ccccc3)CC2)c(C)c1	14%
CCOC(=O)c1cnc2c(C)cc(Cl)cc2c1NCCc1ccc(OC)c(OC)c1	1%
CCc1ccc(CNCc2c(C(=O)O)n(Cc3cccc(F)c3)c3cc(OC)ccc23)cc1	22%
CCSc1nnc(NC(=O)c2cc(=O)c3cc(C)ccc3o2)s1	1%
CCN(CC)c1cc2c(cc1F)c(=O)c(S(=O)(=O)c1ccc(C)cc1)cn2Cc1ccc(F)cc1	-5%
Cc1ccc(S(=O)(=O)N2CCCc3cc(NC(=O)c4ccc(F)c(F)c4)ccc32)cc1	17%
Cc1ccc(OCC(=O)Nc2nnc(S(=O)(=O)N3c4ccccc4CC3C)s2)cc1 (stereo not drawn)	-29%
CCCN(C(=O)Cn1ncc2c([nH]c3ccc(C)cc32)c1=O)c1ccccc1C	-1%

Only part of the results is shown; the hit share may differ from the screen's.
